Screening data as filed in PubChem.
Vaccinia stage = blocks a specific stage of Vaccinia orthopoxvirus infection; Vaccinia-infected cells, mCherry/Venus stage reporter fluorescence; hits give low values; some inactives read as strong as hits; AID 1053133; hit rate 0.01% among 89,000; activity change (mCherry), % (no concentration beside the values);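 active means mCherry past -33% and 40 or more points under the early reporter, replicates agreeing; inconclusive means past -33% without that gap or agreement; tested in A549 cells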;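 further: scaled between vehicle wells and reference inhibitor wells; 23 nL library stock went into each well; one replicate is shown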
Vaccinia stage Venus = also measured in Vaccinia stage; calls as there; activity change (Venus), %; measured here: Venus reporter, other viral stage;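 negative = less Venus signal; first of two replicates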
Active calls of the source: *; ? = inconclusive; . = no result given. The list is partial; count on the stated rates, not on these rows.

SMILES	Vaccinia stage	Vaccinia stage Venus
COc1ccc(NC(=O)N(C)C[C@@H]2Oc3ccc(NC(=O)NC4CCCCC4)cc3C(=O)N([C@H](C)CO)C[C@H]2C)cc1	13	5
O=C(Nc1ccc(-c2ccccc2)cc1)[C@H]1[C@H](CO)[C@H]2Cn3c(cccc3=O)[C@@H]1N2Cc1cncnc1	-9	-4
COc1ccc(C#Cc2ccc([C@@H]3[C@@H](CO)N4CCCCN(C(=O)Cc5ccccc5)C[C@@H]34)cc2)cc1	-12	-8
CC(=O)NC[C@H]1[C@H](c2ccc(-c3ccccc3)cc2)[C@H](CO)N1C(=O)C1CCC1	-3	-5
CC(C)NC(=O)N(C)C[C@H]1Oc2cc(-c3ccccc3F)ccc2S(=O)(=O)N([C@H](C)CO)C[C@H]1C	-12	-8
CCCNC(=O)N1[C@H](C#N)[C@H](c2ccccc2-c2ccc(C)cc2)[C@@H]1CO	-3	-11
CN(C)C(=O)c1ccc(-c2ccc([C@H]3[C@H]4CN(C(=O)C5CC5)CCCCN4[C@H]3CO)cc2)cc1	32	12
COc1ccccc1CN1[C@H](CO)[C@H](c2ccccc2)C12CN(C(C)=O)C2	3	4
O=C([C@H]1N[C@H]2c3ccc(-c4ccc(F)cc4)c(=O)n3C[C@H]2[C@@H]1CO)N1CCOCC1	15	9
CN1c2ccc(-c3cccc(C#N)c3)cc2[C@H]2[C@H](CCN2S(=O)(=O)c2ccccc2)[C@@H]1CO	-16	-14
CO[C@@H]1CN(C)C(=O)c2ccc(NC(=O)Nc3cc(F)ccc3F)cc2OC[C@@H](C)N(C)C[C@@H]1C	-10	1
CCCNC(=O)Nc1ccc2c(c1)OC[C@@H](C)N(Cc1cncnc1)C[C@@H](C)[C@@H](OC)CN(C)C2=O	7	1
O=C(C1CCC1)N1CC2(C1)[C@H](c1ccccc1)[C@H](CO)N2Cc1ccc(Cl)cc1	-33	-29
O=C(c1ccc2c(c1)OCO2)N1CC(=O)N2[C@H](CO)[C@H](c3ccc(C#CC4CCCC4)cc3)[C@@H]2C1	-30	-22
O=C(Cc1cccnc1)N1CCCCN2[C@H](C1)[C@H](c1ccc(C#CC3(O)CCCC3)cc1)[C@@H]2CO	45	11
CCS(=O)(=O)Nc1ccc2c(c1)C(=O)N(C)C[C@@H](OC)[C@@H](C)CN(C(=O)CN(C)C)[C@H](C)CO2	2	1
CN1CCCCN2[C@H](CO)[C@H](c3ccc(-c4cccnc4)cc3)[C@@H]2C1	28	-1
C[C@H](CO)N1C[C@H](C)[C@H](CN(C)S(=O)(=O)c2cccs2)Oc2ccc(NC(=O)Cc3ccccc3)cc2C1=O	-16	-11
O=C(NC1CCCCC1)[C@H]1[C@H](CO)[C@H]2Cn3c(cccc3=O)[C@@H]1N2CC1CCCCC1	-6	1
COc1ccccc1CN1[C@@H]2CN(C(=O)C3CCCC3)c3ccccc3[C@@H]2[C@@H]1CO	-14	3
COc1ccc(NC(=O)N2C[C@H]3[C@@H](c4ccccc42)[C@H](CO)N3C(=O)C2CCCC2)cc1	-8	4
C[C@H](CO)N1C[C@H](C)[C@H](CN(C)C)Oc2ccc(NC(=O)C3CC3)cc2C1=O	16	2
COc1ccccc1NC(=O)N[C@@H]1CC[C@H](CC(=O)NCc2ccc(Cl)c(Cl)c2)O[C@H]1CO	6	9
COc1cccc(S(=O)(=O)N[C@@H]2CC[C@H](CCn3cc(-c4ccccc4)nn3)O[C@@H]2CO)c1	-14	-14
C[C@H](CO)N1C[C@H](C)[C@H](CN(C)Cc2ccc3c(c2)OCO3)Oc2ccc(NC(=O)Nc3ccc4c(c3)OCO4)cc2CC1=O	-10	-5

The results go on.
SMILES	Vaccinia stage	Vaccinia stage Venus
COc1cc(CN2C[C@@H]3N[C@H](C2)C3c2ccc(-c3cccc(OC)c3)cc2)cc(OC)c1 (stereo not given in full)	?	-9
COCC(=O)Nc1ccc2c(c1)OC[C@H](C)N(C(=O)c1ccncc1)C[C@@H](C)[C@@H](OC)CN(C)C2=O	1	7
C[C@H]1CN([C@@H](C)CO)C(=O)Cc2cc(NC(=O)Nc3ccc(F)cc3)ccc2O[C@H]1CN(C)S(=O)(=O)c1ccc(Cl)cc1	?	.
C[C@H](CO)N1C[C@H](C)[C@@H](CN(C)Cc2ccc(C(=O)O)cc2)Oc2ccc(NC(=O)Cc3cn(C)c4ccccc34)cc2CC1=O	22	20
COc1ccc(CN(C)C[C@H]2Oc3ccc(NC(=O)CCN4CCOCC4)cc3CC(=O)N([C@@H](C)CO)C[C@@H]2C)cc1	18	4
C[C@H]1CN([C@@H](C)CO)C(=O)c2ccccc2-c2ccccc2CO[C@H]1CN(C)CC1CC1	17	7
OC[C@H]1[C@@H](c2ccccc2)C2(CN(CCC(F)(F)F)C2)N1Cc1cncnc1	3	8
O=C(Nc1cc(Cl)cc(Cl)c1)N[C@H]1CC[C@H](CCNS(=O)(=O)c2cccc(F)c2)O[C@@H]1CO	-25	-20
CCCC(=O)Nc1ccc2c(c1)OC[C@@H](C)N(Cc1ccncc1)C[C@@H](C)[C@H](OC)CN(C)C2=O	10	5
CO[C@H]1CN(C)C(=O)c2ccc(NC(=O)C3CC3)cc2OC[C@@H](C)N(C(=O)c2ccccc2)C[C@H]1C	-2	-4
N#C[C@@H]1[C@H](c2ccccc2)[C@H](CO)N1S(=O)(=O)c1ccc(-c2ccccc2)cc1	?	.
C[C@@H]1CN([C@@H](C)CO)C(=O)c2cc(C#CC(C)(C)O)cnc2O[C@@H]1CN(C)C(=O)CC1CC1	13	0
O=C(Cc1ccccn1)N1CC2(C1)[C@H](c1ccccc1)[C@H](CO)N2C(=O)c1ccncc1	2	8
CN(C)C(=O)C[C@@H]1C=C[C@@H](NC(=O)NC2CCCCC2)[C@H](CO)O1	-3	6
C[C@H](CO)N1C[C@H](C)[C@@H](CN(C)CC2CCCCC2)Oc2ccc(NC(=O)Nc3ccccc3)cc2CC1=O	?	.
COc1ccc2c3c(n(C)c2c1)[C@H](CO)N(Cc1ccccc1OC)CC31CN(C)C1	-3	3
CO[C@@H]1CN(C)C(=O)c2ccc(NC(=O)c3cc(C)on3)cc2OC[C@H](C)N(C)C[C@H]1C	11	12
O=C(C[C@@H]1CC[C@@H]2[C@H](COC[C@H](O)CN2Cc2ccc(Cl)cc2)O1)NCc1ccccc1Cl	?	.
O=C(C[C@H]1CC[C@@H]2[C@H](COC[C@H](O)CN2Cc2ccccc2F)O1)N1CCc2ccccc2C1	-22	-10
CN1c2ccc(-c3cccc(F)c3)cc2[C@@H]2[C@@H](CCN2C(=O)C2CC2)[C@H]1CO	3	-3
C[C@@H]1CCCCO[C@@H](CN(C)Cc2ccc(C(=O)O)cc2)[C@H](C)CN([C@H](C)CO)C(=O)c2cc(NS(C)(=O)=O)ccc2O1	11	4
C[C@@H]1CCCCO[C@H](CN(C)C(=O)NC2CCCCC2)[C@@H](C)CN([C@@H](C)CO)C(=O)c2cc(NS(=O)(=O)c3cccs3)ccc2O1	-8	-8
Cc1cc(C(=O)Nc2cccc3c2O[C@@H](CN(C)S(=O)(=O)c2ccc(F)cc2)[C@H](C)CN([C@@H](C)CO)C3=O)n(C)n1	2	0
CO[C@@H]1CN(C)C(=O)c2cc(NC(=O)c3ccccc3)ccc2OC[C@H](C)N(C)C[C@@H]1C	3	-2
CC(C)NC(=O)Nc1ccc2c(c1)C(=O)N([C@H](C)CO)C[C@@H](C)[C@@H](CN(C)C(=O)CCC(F)(F)F)OCCCC[C@@H](C)O2	28	-3

Additional compounds follow.
SMILES	Vaccinia stage	Vaccinia stage Venus
C[C@H]1CCCCO[C@H](CN(C)C(=O)CCC(F)(F)F)[C@@H](C)CN([C@@H](C)CO)C(=O)c2cc(NC(=O)CCC(F)(F)F)ccc2O1	-19	-10
N#C[C@H]1[C@@H](c2ccccc2-c2cccc(F)c2)[C@@H](CO)N1C(=O)C1CCC1	5	2
COc1ccccc1-c1ccc([C@H]2[C@@H](C#N)N[C@@H]2CO)cc1	-16	-13
Cc1ccc(S(=O)(=O)Nc2ccc3c(c2)CC(=O)N([C@@H](C)CO)C[C@@H](C)[C@H](CN(C)Cc2ccc(-c4ccccc4)cc2)O3)cc1	?	.
O=C(C[C@H]1CC[C@H]2[C@@H](COC[C@H](O)CN2CC2CCOCC2)O1)NCC1CCCCC1	12	7
CCCC(=O)N1CC2(CN(Cc3nccs3)C2)c2c([nH]c3cc(OC)ccc23)[C@@H]1CO	10	4
Cc1noc(C)c1NC(=O)N(C)C[C@@H]1Oc2ccc(NS(=O)(=O)c3cccs3)cc2C(=O)N([C@H](C)CO)C[C@H]1C	6	0
C[C@H](CO)N1C[C@H](C)[C@@H](CN(C)Cc2ccc(-c3ccccc3)cc2)OCc2cnnn2CCCC1=O	-15	-18
COc1cccc(NC(=O)N2CC(=O)N3[C@H](C2)[C@H](c2ccc(C#CC4CCCCC4)cc2)[C@@H]3CO)c1	-23	-22
CCc1ccc(OCC(=O)Nc2ncn[nH]2)cc1	15	20
O=C(CCN1CCCCC1)N[C@@H]1CC[C@@H](CC(=O)N2CCC(Cc3ccccc3)CC2)O[C@@H]1CO	-7	-7
COc1ccc(NC(=O)N(C)C[C@H]2Oc3ccc(NC(=O)Cc4cn(C)c5ccccc45)cc3C(=O)N([C@@H](C)CO)C[C@H]2C)cc1	17	12
C[C@@H]1CN([C@@H](C)CO)C(=O)c2cccc(NS(=O)(=O)c3ccccc3)c2O[C@@H]1CN(C)C(=O)Nc1ccc(C(F)(F)F)cc1	?	.
C[C@H](CO)N1C[C@H](C)[C@@H](CN(C)C(=O)NC2CCCCC2)Oc2ccc(NS(=O)(=O)c3ccccc3)cc2C1=O	5	-2
COc1ccccc1-c1ccc2c(c1)[C@H]1[C@H](CCN1C(=O)C1CC1)[C@H](CO)N2	-26	-23
Cc1cccc(S(=O)(=O)N2C[C@H](O)COC[C@H]3O[C@H](CC(=O)Nc4ccc(-c5ccccc5)cc4)CC[C@@H]32)c1	-22	-7
CN(C)C(=O)C[C@H]1CC[C@@H]2[C@@H](COc3ccc(NC(=O)Nc4cccc(Cl)c4)cc3C(=O)N2C)O1	-22	-15
CCCNC(=O)[C@@H]1[C@@H](CO)[C@@H]2Cn3c(ccc(/C=C/c4ccccc4)c3=O)[C@H]1N2C(C)=O	16	15
C[C@H](CO)N1C[C@H](C)[C@H](CN(C)C(=O)Nc2ccc(F)cc2)Oc2ncc(C#CCN(C)C)cc2C1=O	4	0
COC(=O)C[C@@H]1C[C@H]2c3cc(NC(=O)c4ccc5c(c4)OCO5)ccc3O[C@H]2[C@@H](CO)O1	14	10
O=C(C[C@H]1CC[C@@H]2[C@H](COC[C@@H](O)CN2CC2CCOCC2)O1)NCc1ccc(Cl)cc1	5	4
C[C@@H]1CN([C@@H](C)CO)C(=O)CCCn2cc(nn2)CO[C@@H]1CN(C)Cc1ccc(C(=O)O)cc1	24	16
C[C@H]1CN([C@@H](C)CO)C(=O)c2cc(NC(=O)CCN3CCOCC3)ccc2O[C@H]1CN(C)C(=O)NC1CCCCC1	27	14
COc1ccc(S(=O)(=O)Nc2ccc3c(c2)CC(=O)N([C@@H](C)CO)C[C@@H](C)[C@H](CN(C)Cc2ccc4c(c2)OCO4)O3)cc1	?	.
O=C(C[C@@H]1C[C@@H]2c3cc(NC(=O)NC4CCCC4)ccc3O[C@@H]2[C@H](CO)O1)NCc1ccncc1	3	4
C[C@H]1CN([C@@H](C)CO)C(=O)c2cc(NC(=O)Nc3cccc4ccccc34)ccc2O[C@H]1CN(C)S(=O)(=O)c1ccc(F)cc1	9	9
C[C@@H]1CN([C@H](C)CO)C(=O)c2cccc(NC(=O)NC3CCCCC3)c2O[C@H]1CN(C)Cc1ccc(-c2ccccc2)cc1	-32	-28
C[C@@H]1CCCCO[C@@H](CN(C)Cc2ccc(Cl)c(Cl)c2)[C@H](C)CN([C@H](C)CO)C(=O)c2cc(NS(=O)(=O)c3ccc(Cl)cc3)ccc2O1	?	.
COc1ccc(NC(=O)N(C)C[C@H]2Oc3c(NS(=O)(=O)c4cccs4)cccc3C(=O)N([C@H](C)CO)C[C@@H]2C)cc1	6	5

Of the compounds above, these have a Cl atom.
SMILES	Vaccinia stage	Vaccinia stage Venus
O=C(C1CCC1)N1CC2(C1)[C@H](c1ccccc1)[C@H](CO)N2Cc1ccc(Cl)cc1	-33	-29
COc1ccccc1NC(=O)N[C@@H]1CC[C@H](CC(=O)NCc2ccc(Cl)c(Cl)c2)O[C@H]1CO	6	9
C[C@H]1CN([C@@H](C)CO)C(=O)Cc2cc(NC(=O)Nc3ccc(F)cc3)ccc2O[C@H]1CN(C)S(=O)(=O)c1ccc(Cl)cc1	?	.
O=C(Nc1cc(Cl)cc(Cl)c1)N[C@H]1CC[C@H](CCNS(=O)(=O)c2cccc(F)c2)O[C@@H]1CO	-25	-20
O=C(C[C@@H]1CC[C@@H]2[C@H](COC[C@H](O)CN2Cc2ccc(Cl)cc2)O1)NCc1ccccc1Cl	?	.
CN(C)C(=O)C[C@H]1CC[C@@H]2[C@@H](COc3ccc(NC(=O)Nc4cccc(Cl)c4)cc3C(=O)N2C)O1	-22	-15
O=C(C[C@H]1CC[C@@H]2[C@H](COC[C@@H](O)CN2CC2CCOCC2)O1)NCc1ccc(Cl)cc1	5	4
C[C@@H]1CCCCO[C@@H](CN(C)Cc2ccc(Cl)c(Cl)c2)[C@H](C)CN([C@H](C)CO)C(=O)c2cc(NS(=O)(=O)c3ccc(Cl)cc3)ccc2O1	?	.
